Screens: PubChem, several laboratories
Mtb bLac sens: beta-lactam sensitization of Mtb H37Rv; M. tuberculosis H37Rv growth with meropenem, percent inhibition; hits of this screen are not shown here; AID 434955; 330,000 tested, 0.27% active; inhibition, % at 25 µM;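 active = about 74% or more and at least 40 points above the plate without the antibiotic, then above 30% in a dose series; inconclusive = first-round hits that could not be retested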;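 note: growth measured after seven days incubation then overnight dye step; 0% = bacteria only wells and 100% = bacteria with antibiotic; twin plates without the antibiotic show which effects depend on it; some results filed as inactive read as strong as hits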
Arbovirus inh: blocks arbovirus infection; arbovirus infection cell-based antiviral screen; inhibition, % at 10 µM; 200,000 tested, 0.37% active;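 active = inhibition from about 30%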;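 note: bluetongue infection of BSR cells; cell survival read as ATP light after 72 h; 0% = infected wells without compound and 100% = uninfected wells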
YopH PTP inh: YopH (Yersinia) phosphatase inhibition; fluorescence Ex485/Em525; inhibition, %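 (about 10 µM by stock and volumes)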; 140,000 tested, 0.16% active; AID 898;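 active = inhibition of 50% or more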;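 note: controls were vehicle for no effect and minimum signal wells for full effect; inactives centre near -20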
RecA intein inh: inhibitors of M. tuberculosis RecA intein splicing. P9WHJ3. cell-free RecA intein splicing, fluorescence. inhibition, %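 (about 9 µM by stock and volumes)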. 290,000 tested, 0.75% active. AID 2221; in the data active = inhibition above about 30%; inconclusive = no clear call, values can overlap the other calls;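 note: 0% = vehicle wells and 100% = reference inhibitor control wells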
Target sequence (P9WHJ3 whole entry, looked up): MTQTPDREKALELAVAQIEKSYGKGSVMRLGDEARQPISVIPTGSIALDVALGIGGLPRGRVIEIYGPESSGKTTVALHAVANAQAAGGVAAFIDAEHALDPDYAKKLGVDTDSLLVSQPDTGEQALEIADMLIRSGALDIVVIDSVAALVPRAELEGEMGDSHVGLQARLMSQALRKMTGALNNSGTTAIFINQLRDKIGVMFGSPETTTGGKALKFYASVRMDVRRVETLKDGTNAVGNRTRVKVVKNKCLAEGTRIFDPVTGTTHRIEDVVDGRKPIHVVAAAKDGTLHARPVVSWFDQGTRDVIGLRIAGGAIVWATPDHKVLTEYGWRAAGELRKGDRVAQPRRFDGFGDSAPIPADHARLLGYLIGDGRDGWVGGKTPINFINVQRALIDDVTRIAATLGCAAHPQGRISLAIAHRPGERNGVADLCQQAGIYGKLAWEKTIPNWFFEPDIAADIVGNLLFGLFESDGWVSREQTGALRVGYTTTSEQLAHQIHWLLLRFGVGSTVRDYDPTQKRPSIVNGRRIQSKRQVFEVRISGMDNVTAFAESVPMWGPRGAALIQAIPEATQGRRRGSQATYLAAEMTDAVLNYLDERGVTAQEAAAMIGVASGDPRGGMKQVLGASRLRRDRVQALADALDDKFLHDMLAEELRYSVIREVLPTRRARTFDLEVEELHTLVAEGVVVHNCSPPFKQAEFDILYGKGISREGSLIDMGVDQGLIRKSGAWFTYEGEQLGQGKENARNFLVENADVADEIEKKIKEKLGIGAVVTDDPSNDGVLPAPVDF
Mtb growth: M. tuberculosis H37Rv growth inhibitors, H37Rv strain (AID 1626) | M. tuberculosis H37Rv growth inhibition; higher % means a stronger effect | inhibition, % at 10 µM; hits with a dose series show IC50 in µM | 220,000 tested, 0.95% active;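 active = confirmed in a dose series; inconclusive = inhibition above 80% but not taken into the dose series; inactive = below 80% or under 30% at every dose of the series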;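 note: bacteria incubated seven days before Alamar blue readout; 0% = bacteria only wells and 100% = bacteria with antibiotic wells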
Arbovirus inh repeat: also measured in Arbovirus inh; calls as there; inhibition, %; measured here: 10K subset replicate screen; many hits read low in the repeat;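 first of two repeat runs on a subset; 0% = infected and 100% = uninfected wells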
* marks the source's active call; other numbers are inactive results; ? = inconclusive; nt = not tested or not shown. Not all compounds are listed (hit frequency here may not be typical).

SMILES	Mtb bLac sens	Arbovirus inh	YopH PTP inh	RecA intein inh	Mtb growth	others
CCc1ccc(NC(=O)COC(=O)CCc2nc3cc(S(=O)(=O)N(CC)CC)ccc3n2C)cc1	-6.7	6.9	-6.6	0.3	3.5%
Cc1snc(S(=O)(=O)Cc2ccccc2Cl)c1C#N	-3.8	-6.0	3.6	-0.3	1.8%
COc1ccc2c(c1)CCc1c-2n[nH]c1C(=O)O	-2.7	1.4	-38.7	nt	1.4%
Cc1ccc(C(=O)N/C(=C\c2cccs2)c2nc3ccccc3[nH]2)cc1	3.3	-4.7	-48.8	1.5	-9.3%
O=C(N/N=C/c1cccnc1)c1cccc(Cl)c1	-2.9	nt	nt	-11.4	nt
CN1CCCN(Cc2ccccc2C(F)(F)F)CC1	-5.0	-1.8	-42.1	-3.3	-6.0%	Arbovirus inh repeat=2.6
COC(=O)C1=C(c2cc3ccccc3s2)C[C@@H]2CC[C@H]1N2C(=O)NCCCOC(C)C	2.5	nt	nt	0.8	-2.3%
CN(C(=O)c1ccccc1NC(=O)C(F)(F)F)c1ccccc1	-6.0	-0.1	-13.9	-0.4	-6.7%
O=C(NCC1COc2ccccc2O1)Nc1ccccc1F (centres undefined)	-5.6	12.4	-6.6	2.7	-8.0%
COc1ccccc1Nc1nc2ccc(C)cc2cc1C#N	9.6	-1.8	-27.3	-7.0	nt
CSc1nsc(SC)c1NC(=O)Nc1ccccc1C	-4.3	-11.6	nt	-0.5	-2.5%
C/C(=N/NC(=O)CNC(=O)c1cccnc1)c1ccc(Cl)c(Cl)c1	-2.7	nt	nt	-0.8	nt
Cc1nc(-c2ccccc2)sc1C(N)=O	-6.8	2.2	-8.7	-0.7	-3.3%
CCOC(=O)c1sc2nc(-c3cccnc3)ccc2c1N	1.6	-18.4	nt	-6.1	-1.0%
Cn1cccc1Cc1nnc(SCC(=O)N2CCOCC2)n1-c1ccc(F)cc1	1.3	3.8	-29.9	0.3	-5.2%	Arbovirus inh repeat=-1.9
CCSc1nc2c(c(=O)[nH]c(=O)n2C)n1CC(O)COc1ccccc1C (centres undefined)	1.9	-4.0	6.3	-0.4	-5.1%
Cc1ccc(C)c(NS(=O)(=O)c2c(C)[nH]c(C)c2C(=O)N2CCCCC2)c1	-1.7	nt	nt	-2.1	nt
O=C(NC(=S)N1CCc2ccccc21)c1ccco1	86.4	0.0	nt	nt	27.5%
COc1ccc(CNC(=O)C2CC(c3cc(C(F)(F)F)cc(C(F)(F)F)c3)=NO2)cc1 (centres undefined)	-8.1	nt	nt	-1.7	-6.5%
COc1ccc(OCc2nnc(SCC(=O)N3CCCC3)o2)cc1	7.6	nt	nt	-3.0	nt
O=C(NNc1c2ccccc2nc2ccccc12)c1ccccc1O	17.6	-7.3	-11.8	-3.2	8.8%
N#C/C(=C\c1ccc(N2CCOCC2)o1)C(=O)Nc1ccc(O)cc1	3.0	-14.1	nt	nt	-0.3%
CCCN1CCN(C(=O)CCS(=O)(=O)c2cc3c(cc2Cl)NC(=O)CO3)CC1	4.0	nt	nt	-0.7	nt
COc1ccc2sc(/C=C/c3ccccc3O)[n+](C)c2c1	nt	2.4	nt	nt	-5.6%
CCCOc1ccc(N2C(=O)CC(N3CCN(CCN=CC4=C(O)CC(C)(C)CC4=O)CC3)C2=O)cc1 (centres undefined)	-2.2	5.7	nt	0.9	-1.6%
Cc1cc(C)n(/C(=C\N(C)C)C(=O)c2cccc([N+](=O)[O-])c2)n1	-5.7	nt	nt	-0.5	nt
COC(=O)CN(c1ccc(OC)c(OC)c1)S(C)(=O)=O	0.1	-4.5	4.1	0.6	1.3%
Nc1nc(-c2ccc(Cl)cc2)cn1N	-3.0	-5.7	-14.1	-0.4	2.2%
O=C(N/N=C/c1ccc(OCc2ccccc2)cc1)c1cc[n+](Cc2ccccc2)cc1	-2.2	-15.6	-20.4	-7.2	14.1%
Cc1cc(-c2ccc(C)c(S(=O)(=O)NCCC(C)N3CCCCCC3)c2)on1 (centres undefined)	-0.3	nt	nt	-1.2	nt

Structural class, the entries above with fluorine (5)
SMILES	Mtb bLac sens	Arbovirus inh	YopH PTP inh	RecA intein inh	Mtb growth	others
CN1CCCN(Cc2ccccc2C(F)(F)F)CC1	-5.0	-1.8	-42.1	-3.3	-6.0%	Arbovirus inh repeat=2.6
CN(C(=O)c1ccccc1NC(=O)C(F)(F)F)c1ccccc1	-6.0	-0.1	-13.9	-0.4	-6.7%
O=C(NCC1COc2ccccc2O1)Nc1ccccc1F (centres undefined)	-5.6	12.4	-6.6	2.7	-8.0%
Cn1cccc1Cc1nnc(SCC(=O)N2CCOCC2)n1-c1ccc(F)cc1	1.3	3.8	-29.9	0.3	-5.2%	Arbovirus inh repeat=-1.9
COc1ccc(CNC(=O)C2CC(c3cc(C(F)(F)F)cc(C(F)(F)F)c3)=NO2)cc1 (centres undefined)	-8.1	nt	nt	-1.7	-6.5%

(continued)
SMILES	Mtb bLac sens	Arbovirus inh	YopH PTP inh	RecA intein inh	Mtb growth	others
O=C(Cc1ccc(Cl)cc1)NC1CCCCCC1	-1.7	nt	nt	-0.5	nt
O=C(N/N=C/c1cccc(C(F)(F)F)c1)c1ccccc1O	3.1	8.9	nt	0.2	-2.8%
COc1cc(Cl)c([C@@H]2C[C@H]3CN(c4ccccc4)C(=O)[C@]34CCCN24)cc1OC	3.7	0.1	nt	nt	2.3%
Cc1[nH]nc(SCC(=O)NCc2ccc(F)cc2)c1[N+](=O)[O-]	-2.2	1.4	8.7	0.0	2.5%
CC(=O)N=c1sc(S(N)(=O)=O)nn1C	-3.0	6.4	23.2	0.0	-3.5%
COc1cc(C2NC(=O)c3ccccc3O2)cc(OC)c1OC (centres undefined)	-7.5	1.4	7.0	0.8	4.3%
O=C(O)CCC(=O)Nc1ccccc1C(=O)NCc1ccccc1	-4.8	1.4	-29.8	-6.5	-4.2%
CC(C)(C)C(=O)C(CO)(Oc1ccc(Cl)cc1)n1cncn1 (centres undefined)	-3.0	-2.9	-31.1	0.4	2.8%
CCOC(=O)c1ccc(NC(=O)COc2ccccc2OC)cc1	82.5	1.6	-44.8	1.4	79.8%
Cc1ccc(NC(=O)Cn2cc3c(n2)CCC(C)C3)cc1 (centres undefined)	-7.7	1.1	-28.4	1.4	-9.3%	Arbovirus inh repeat=8.7
CC(C)NC(=O)c1ccccc1S(=O)(=O)c1ccccc1C#N	-13.0	0.9	-37.2	-3.8	-1.4%
CC(=O)c1ccc(N2CCN(c3ccc(C(N)=O)cc3[N+](=O)[O-])CC2)cc1	2.9	2.4	nt	-0.6	5.2%
CCOC(=O)N1CCC(N2Cc3cccc(C(=O)NCc4ccc5c(c4)OCO5)c3C2=O)CC1	1.0	nt	nt	-0.3	-9.0%
Cc1ccc(NC(=O)Cc2nnc(SCC(=O)c3ccc(Br)cc3)n2C)cc1Cl	-3.4	4.9	-2.2	-1.6	nt
CCOC(=O)C1(Cc2ccc(OC)cc2)CCN(C(=O)CCc2cnccn2)CC1	-7.5	nt	nt	-2.1	-4.6%
CCNC(=O)/C(C#N)=C/c1c(N2CCCCCC2)nc2ccccn2c1=O	-1.2	nt	nt	-0.2	nt
Cc1ccc2nc(NCc3ccccc3)c(C=O)c(=O)n2c1	2.3	-6.8	-14.4	-2.0	-4.1%
Cc1ccc(NC(=O)[C@@H]2CCCN2C(=O)[C@@H]2Cc3ccccc3CN2)c(C)c1	5.9	nt	nt	-1.0	nt
CCCN(CCC)C(=O)c1c(C)[nH]c(C(=O)OCC)c1C	?	13.3	-26.2	-0.2	2.7%	Arbovirus inh repeat=-1.7
CCOc1ccc(OCc2ccc(C(=O)N/N=C(\C)c3ccccn3)cc2)cc1	7.3	-14.8	nt	-0.3	60.8%
C[C@H](NC(=O)c1nc[nH]c1C(=O)N[C@@H](CCCCN)C(=O)OC(C)(C)C)C(=O)OC(C)(C)C	-2.3	nt	nt	-0.1	nt
CCC(NC(=O)CCc1c(C)c2cc3c(-c4ccccc4)coc3cc2oc1=O)C(=O)O (centres undefined)	-2.5	nt	nt	-2.1	nt
Cc1nc(SCc2ccc(Br)cc2)[nH]c(=O)c1C	-5.6	3.6	-32.6	nt	11.4%
CC1(C)OC(=O)C(=CNNc2c(Cl)cc(Cl)cc2Cl)C(=O)O1	1.2	nt	nt	0.6	nt
Cc1ccc2oc(-c3cccc(NC(=O)C4CCCO4)c3)nc2c1 (centres undefined)	17.2	5.0	-18.2	0.4	4.1%
C/C(=C(\C#N)C(=O)NC1CCCCC1)N(C)C	-0.7	5.4	-58.2	nt	-0.4%
Cc1ccn2c(=O)c(C(=O)NC3CCCCC3C)c(O)nc2c1 (centres undefined)	10.6	nt	nt	-1.0	nt
CCOC(=O)C1=C(COC(=O)c2cccnc2Cl)NC(=O)NC1C (centres undefined)	1.3	nt	nt	-0.5	nt
O=C(OCCN1C(=O)c2cccc3c(N4CCOCC4)ccc(c23)C1=O)c1ccc(Cl)cc1	6.8	-3.5	-21.0	-33.5	8.1%
Clc1nnc2ccc(-c3ccccc3)nn12	1.5	2.6	-19.8	nt	1.1%
CCCCC(=O)Nc1ccc(S(=O)(=O)Nc2nccc(C)n2)cc1	2.1	0.0	nt	-1.0	-5.2%
Cc1ccsc1/C=N/NS(=O)(=O)c1ccc([N+](=O)[O-])cc1	-6.1	0.4	-25.7	-0.5	0.6%
COC(=O)c1sc2ccccc2c1NC(=O)c1ccc(S(=O)(=O)N2CCCCC2)cc1	3.3	2.4	-28.5	1.9	-4.6%
NC(=O)c1cc([N+](=O)[O-])ccc1N1CCCCC1	-1.4	-5.1	-20.5	-1.5	-1.8%
CC1CCCCN1C(=O)COC(=O)C1CCN(S(=O)(=O)c2ccc(Cl)c(C(F)(F)F)c2)CC1 (centres undefined)	0.6	nt	nt	2.0	nt
CCCOc1ccc(/C=N/NC(=O)c2ccc(Cn3cc([N+](=O)[O-])cn3)o2)cc1	3.9	7.1	-15.4	0.8	nt
CC(=O)c1c(C)oc2ccc(N(C(C)=O)S(=O)(=O)c3cccc([N+](=O)[O-])c3)cc12	-4.5	6.8	nt	-2.3	10.1%
N#Cc1nc(COc2ccc(Br)cc2)oc1N1CCN(Cc2ccccc2)CC1	nt	12.2	-40.3	nt	18.6%
CCCCC(=O)NC(c1cccc([N+](=O)[O-])c1)c1c(OC(C)=O)ccc2ccccc12 (centres undefined)	-21.5	16.2	8.8	34.6*	4.0%
Cc1ccc2[nH]c(=O)c(CN(CCO)C(=O)NCc3ccccc3)cc2c1	-0.6	2.1	nt	1.0	-4.4%
O=C(/C=C/c1ccc2c(c1)OCO2)c1c(O)n(CCC2=CCCCC2)c(=O)[nH]c1=O	99.5	-4.9	-25.8	nt	?
O=C(CC1NC(=O)NC1=O)Nc1cccc2ccccc12 (centres undefined)	-2.8	4.0	4.6	0.5	-7.8%
CCCCCOc1ccc(CSC2=NCCN2)cc1[N+](=O)[O-]	-1.0	-7.5	-20.3	16.5	-0.3%
CCc1nc(SCc2ccccn2)c2c(=O)n(C)c(=O)n(C)c2n1	-5.6	-7.4	-2.6	4.6	-3.3%
COc1ccc(S(=O)(=O)N2CCN(Cc3ccc4c(c3)OCO4)CC2)cc1	2.4	nt	nt	-4.0	nt
COc1ccc(S(=O)(=O)N2CCSCC2)cc1C(N)=O	-1.3	nt	nt	0.1	nt
Cc1ccc(NC(=O)CSCC(=O)N=c2sccn2C)cc1	-8.8	nt	nt	3.6	nt
Cc1ccc(S(=O)(=O)N2CCCC2=O)c(C)c1N(C)S(C)(=O)=O	-4.4	nt	nt	-0.8	nt
COC(=O)c1ccc(Cl)c(-c2ccc(/C=N/NC(=O)Nc3ccccc3)o2)c1	13.1	5.6	-1.7	-4.7	-11.6%
Cc1ccc(C(C)(C)C)c(SCC(=O)Nc2nnc(C)s2)c1	10.2	nt	nt	-0.8	nt
Cc1ccc(C)c(N2CCN(C3CCCCC3NS(=O)(=O)c3ccccc3)CC2)c1 (centres undefined)	7.7	nt	nt	0.4	nt
COC(=O)c1[nH]c2cccc(OC)c2c1NC(=O)CN1CC(C)OC(C)C1 (centres undefined)	-4.6	-4.5	-2.4	1.4	-3.7%
COc1cc(/C=C/c2ccc3cccc(O)c3n2)ccc1O	99.1	nt	nt	-0.7	nt
NS(=O)(=O)c1cccc(NC(=O)c2ccno2)c1	8.4	nt	nt	-2.7	nt
NS(=O)(=O)c1ccc(NC(=O)CSc2nc3ccccc3nc2N2CCOCC2)cc1	1.4	nt	nt	1.2	nt
N/C(=N\OC(=O)Cc1cccs1)c1cccc([N+](=O)[O-])c1	29.8	-5.9	-20.6	-3.2	6.0%
CC(=O)Nc1ccc(-c2cc(-c3ccc(NC(C)=O)cc3)nc(-c3ccc(NC(C)=O)cc3)n2)cc1	4.7	-5.6	-44.9	4.4	-2.2%
CN1CCN(S(=O)(=O)c2cc([N+](=O)[O-])ccc2N2CCCCCC2)CC1	-7.9	-0.5	-28.9	3.9	4.5%
